Bioassay records (PubChem BioAssay)
HPGD block = blocks human HPGD enzyme activity. 150,000 compounds, 4.3% hits. purified HPGD, NADH fluorescence kinetic, PGE2 substrate. Potency, µM, for inactives: at the top dose activity change, negative = inhibition, most hits filed as inhibitors. AID 894. P15428; active = well fitted inhibition curve with a large enough effect (not every such curve was filed as active); inconclusive = small, poorly fitted or top-dose-only effect, or another doubt; inactive = no such curve, though single readings can be large or run the other way;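 further: top concentration of the series not given in the record; plate controls included wells without enzyme; inactives centre near -10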
Target sequence (P15428 whole entry, looked up): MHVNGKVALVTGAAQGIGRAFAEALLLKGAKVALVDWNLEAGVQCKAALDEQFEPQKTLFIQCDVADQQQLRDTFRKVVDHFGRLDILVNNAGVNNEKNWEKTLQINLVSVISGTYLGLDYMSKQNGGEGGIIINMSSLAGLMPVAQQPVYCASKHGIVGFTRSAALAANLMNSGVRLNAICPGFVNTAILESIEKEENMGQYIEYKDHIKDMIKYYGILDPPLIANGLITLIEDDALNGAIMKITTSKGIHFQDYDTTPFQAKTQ
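NADH formation kinetics: reaction with 30 uM PGE2 and 1 mM NAD+ (final), 20 nM enzyme, Tris-HCl pH 8 with Tween 20, after 15 min compound preincubation at room temperature. Fluorescence change, last versus first of five reads.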
An asterisk follows results filed as active; u = inconclusive; & = joins results of further samples. On the % scale 0 is the no-effect control and ±100 the full control effect; potency means the concentration at half of the fitted maximal effect. These rows are one share of the data; the hit share may differ from the screen's.

| compound | HPGD block |
| --- | --- |
| COc1ccc2c(c1)N(C)/C(=C1/SC(=NCc3ccccc3)N(c3ccccc3)C1=O)S2 | -10% |
| COc1ccc(COC(=O)c2n[nH]c3ccccc23)cc1F | -20% |
| O=C1CN(C(=O)COC(=O)c2oc3ccccc3c2COc2ccccc2)c2ccccc2N1 | 1% |
| CC1(C)CC(=O)c2cc(C(=O)NCc3ccco3)c(=O)n(-c3ccc(Cl)cc3)c2C1 | -18% |
| CC(C)Cn1c(-c2cccs2)nc2ccccc21 | u |
| CCOC(=O)Cn1c(=O)c2c(nc(Br)n2Cc2ccccc2)n(C)c1=O | -21% |
| COc1ccc2cc3cc(C(=O)NCCCN4CCc5ccccc5C4)sc3nc2c1 | u |
| CNC(=O)COC(=O)c1cc2c(C)nn(-c3ccc(F)cc3)c2s1 | u |
| COc1ccccc1-n1c(SCC(=O)NC2CCCC2)nc2cccnc21 | 14µM* |
| Cc1nc2ccccc2c(=O)n1CCCn1ccnc1 | -6% |
| CCN(C(=O)Cc1c(C(=O)O)[nH]c2ccccc12)c1cc(OC)ccc1OC | -13% |
| CN(CCO)CC(O)Cn1cnc2c1c(=O)n(C)c(=O)n2C (centres undefined) (tested in a mixture with another compound) | -6% |
| O=C(Nc1cccc(O)c1)c1cnn2cccnc12 | -18% |
| CCOC(=O)CSCC(NC(=O)OC(C)(C)C)C(=O)OCC (centres undefined) | -5% |
| Clc1ccc(COn2nnc3ccccc32)c(Cl)c1 | -16% |
| O=c1c(Oc2ccccc2F)coc2cc(OCc3cnn(-c4ccccc4)c3)ccc12 | -9% |
| CC1CC(C)(C)N2C(=O)C3(Nc4ccccc4S3)c3cccc1c32 (centres undefined) | -11% |
| C/C(O)=C\c1nc(=O)c2c(C)cc(C)nc2n1-c1ccccc1 | -15% |
| N#Cc1ccc(CSc2nnc(-c3ccccn3)n2-c2ccccc2)cc1 | -4% |
| CCC1CCCCN1C(=O)CSc1nnc(CNC(=O)c2ccco2)o1 (centres undefined) | -8% |
| Cc1cc(C)c2nc(SC(C)C#N)cc(C)c2c1 (centres undefined) | -10% |
| CCn1c(=O)cc(OCC(=O)N2CCCC2)c2ccccc21 | -12% |
| COc1cc(CNC(C)(C)CO)ccc1OCC(=O)Nc1ccc(Br)cc1 | 0% |
| CCOc1cc(/C=C(/C#N)c2nc3ccccc3[nH]2)ccc1Oc1ccc([N+](=O)[O-])cn1 | u |
| O=C(NCc1ccc(Cl)cc1)c1ccc(COCC(F)(F)F)o1 | -15% |
| COc1cccc(-c2nn3c(-c4cc(C)[nH]n4)nnc3s2)c1 | -29% |
| COc1cccc(C2/C(=C(/O)c3ccc(F)cc3)C(=O)C(=O)N2CCN(C)C)c1 (centres undefined) | -12% |
| c1nc(N2CCOCC2)c2c3c(sc2n1)CCCC3 | -7% |
| COc1cc(/C=C(\C#N)C(=O)NCC2CCCO2)ccc1O (centres undefined) | -23% |
| Cc1cccc(C)c1-n1c(C)cc(/C=N/NC(=O)CSc2ncccn2)c1C | -15% |
| CCOC(=O)C1Cc2ccccc2C(=O)O1 (centres undefined) | -1% |
| COc1ccc(NC(=O)C2CCCN2S(=O)(=O)c2cccc3cccnc23)c(OC)c1 (centres undefined) | -13% |
| CC1=Nc2ccc(C)cc2N(Cc2ccccc2)C(=O)C1 | -10% |
| COC(=O)CN(c1ccc(F)cc1)S(=O)(=O)c1ccccc1 | -13% |
| CCN(CC)CCN=CC1=C(O)CNC1=O | -1% |
| N#CCCn1nc(-c2ccccc2)cc1Nc1ccccc1NC(=O)c1cccs1 | -10% |
| Cc1ccc(-c2noc(C3CCCN(C(=O)C4CCCCC4)C3)n2)o1 (centres undefined) | -15% |
| COC(=O)C1=C(C)N(c2ccc(F)c(Cl)c2)C(=O)C1 | -16% |
| CC1=NN(c2ccc(C)cc2C)C(=O)C1C(c1cccc(O)c1)C1C(=O)N(c2ccc(C)cc2C)N=C1C (centres undefined) | u |
| Oc1c(C(O)(c2ccccc2)c2ccc3ccccc3c2O)ccc2ccccc12 | u |
| Cc1oncc1C(=S)Nc1ccccc1 | -16% |
| CCn1cc(C2=NOC(C(=O)Nc3cc(OC)c(Cl)cc3OC)C2)c(C)n1 (centres undefined) | -5% |
| CCCn1c(SCC(=O)N2c3ccccc3Sc3ccccc32)nc2c1c(=O)n(C)c(=O)n2C | 3% |
| CCN(CC)C(=O)c1scc2c1OCCO2 | -16% |
| Cn1c(N)c(C(=O)c2ccc(Oc3ccccc3)cc2)c(=O)n(C)c1=O | -9% |

Six structures already listed, sorted by molar mass, falling.
| compound | HPGD block |
| --- | --- |
| N#CCCn1nc(-c2ccccc2)cc1Nc1ccccc1NC(=O)c1cccs1 | -10% |
| CCn1cc(C2=NOC(C(=O)Nc3cc(OC)c(Cl)cc3OC)C2)c(C)n1 (centres undefined) | -5% |
| Cn1c(N)c(C(=O)c2ccc(Oc3ccccc3)cc2)c(=O)n(C)c1=O | -9% |
| CCN(CC)C(=O)c1scc2c1OCCO2 | -16% |
| CCOC(=O)C1Cc2ccccc2C(=O)O1 (centres undefined) | -1% |
| Cc1oncc1C(=S)Nc1ccccc1 | -16% |

Reformatted field by field: entries from further up
COC(=O)C1=C(C)N(c2ccc(F)c(Cl)c2)C(=O)C1
  HPGD block = -16%
CC1=NN(c2ccc(C)cc2C)C(=O)C1C(c1cccc(O)c1)C1C(=O)N(c2ccc(C)cc2C)N=C1C (centres undefined)
  HPGD block = u
Cn1c(N)c(C(=O)c2ccc(Oc3ccccc3)cc2)c(=O)n(C)c1=O
  HPGD block = -9%

(cont.)
| compound | HPGD block |
| --- | --- |
| O=C(NCCn1cc(SCc2ccccc2F)c2ccccc21)c1c(F)cccc1F | -6% |
| COc1ccc(/C=N/NC(=O)C(=O)NCc2cccnc2)cc1OC | -15% |
| COc1ccc(OC)c(C(c2nnnn2C2CCCC2)N2CCc3ccccc3C2)c1 (centres undefined) | -17% |
| CNS(=O)(=O)c1cnccc1N1CCN(C)CC1 | -8% |
| Cc1cccn2c(=O)c(/C=C(\C#N)C(=O)NC3CCS(=O)(=O)C3)c(N3CCC(C(N)=O)CC3)nc12 (centres undefined) | u |
| COC(=O)c1ccc(CSc2nnnn2-c2ccc(C)cc2C)o1 | -13% |
| CCCC(=O)Nc1ccc(C(=O)NN=C(C2CC2)C2CC2)cc1 | -9% |
| COc1ccc(-c2nnc(SCC(=O)N3c4ccccc4Sc4ccccc43)o2)cc1 | -13% |
| C=CCn1c(=O)c2ccccc2n2c(SCC(N)=O)nnc12 | -10% |
| Cc1ccc(C)c(C(=O)NCc2ccncc2)c1 | -13% |
| COc1cc(C(=O)N2CCN(c3ccc(C)cc3C)CC2)cc(OC)c1OC | -12% |
| COCCNC(=O)CC(NS(=O)(=O)c1ccc(NC(C)=O)cc1)C(C)C (centres undefined) | 2% |
| CC(C)(C)N1CC(c2nc3ccccc3n2Cc2ccccc2)CC1=O (centres undefined) | -4% |
| Nc1cc(N)nc(SCc2cc(=O)oc3cc4c(cc23)CCC4)n1 | -20% |
| O=C(Nc1ccccc1Cl)c1cccc(NC(=O)C2C3CC4OC(=O)C2C4C3)c1 (centres undefined) | -6% |
| CC(=O)c1cccc(NC(=O)C(OC(=O)c2ccccc2NS(=O)(=O)c2cccs2)c2ccccc2)c1 (centres undefined) | -14% |
| CC12CCC(c3nnc(SCC(=O)Nc4cccc5ccccc45)nc31)C2(C)C (centres undefined) | 0% |
| CCC(C)[C@H](NC(=O)NCCCc1ccccc1)C(=O)OC (some centres undefined) | -10% |
| CN1C(=O)NC2C1N(S(C)(=O)=O)CCN2S(C)(=O)=O (centres undefined) | 1% |
| CCOc1cc(C2C(C(=O)c3ccc(C)cc3)=C(C(=O)OC)Nc3nnnn32)ccc1O (centres undefined) | -9% |
| Cc1cc2nnc(SCC(=O)N3CCN(c4ccccc4)CC3)n2c(N)n1 | -4% |
| Cc1cc(OCC(=O)Nn2cnnc2)ccc1Br | -9% |
| CCc1cc2c(=O)c(-c3ccc4c(c3)OCCO4)c(C)oc2cc1OS(C)(=O)=O | -22% |
| N#CC1=C(N)SC(N)=C(C#N)C1c1ccnc2ccccc12 | 16µM* |
| O=C(Nc1ccccc1OC(F)F)c1ccc(Br)o1 | -6% |
| O=S(=O)(c1ccc2ccccc2c1)N1CCN(S(=O)(=O)N2CCOCC2)CC1 | -2% |
| O=c1cc(CN2CCN(c3cccc(Cl)c3)CC2)c2cc(O)c(-c3ccccc3)cc2o1 | -7% |
| O=C(NCc1ccc2c(c1)OCO2)c1ccc2c(c1)OCCO2 | -14% |
| COC(=O)c1ccccc1NC(=O)c1cnc2sccn2c1=O | -21% |
| CCCC(C(=O)n1nc(C)cc1C)C(NS(=O)(=O)c1ccc(C)cc1)c1ccccc1 (centres undefined) | -7% |
| Cc1cc(C(=O)CSc2nnc(-c3ccco3)o2)c(C)n1CC1COc2ccccc2O1 (centres undefined) | -23% |
| CCCCCCN(C(=O)CCCCCN1C(=O)NC(c2ccc(-c3ccccc3)cc2)C(C(=O)OCc2ccccc2)=C1C)C(C(=O)NCCCC)c1ccc(O)cc1 (centres undefined) | -16%&-10% |
| Cc1ccc(Sc2c(C)[nH]n(C(C)(C)C)c2=O)cc1 | -12% |
| COc1ccccc1CN1CCC2(CC1)CCN(C(=O)c1cccc(F)c1)CC2 | 1% |
| CCOC(=O)C1CCN(C(=O)c2ccccc2NC(=O)c2ccc(Br)cc2)CC1 | -2% |
| O=C(NC(O)C(=O)c1ccccc1)c1cccs1 (centres undefined) | -8% |
| O=c1c2ccccc2[nH]c(=S)n1Cc1cccnc1 | -9% |
| CCNc1sc(C(=O)c2cccs2)c(N)c1-c1nc2ccccc2s1 | -18% |
| COc1cccc(C(=O)N2CCN(C3CCN(Cc4ccccc4)CC3)CC2)c1 | -3% |
| CC(=O)C1=C(C)NC(SCC(=O)c2ccc(F)cc2)=C(C#N)C1CC(C)C (centres undefined) | 22µM* |
| COc1cccc(NC(=O)CCN2CCN(C)CC2)c1 | -4% |
| COC(=O)c1cc2n(n1)CCN(Cc1ccccc1F)C2=O | -10% |
| CCCNC(=O)Cc1c(OC)ccc2cc(Br)ccc12 | -10% |
| O=c1c(-c2ccccc2)nc2cncnc2n1Cc1ccc(F)cc1 | u |
| O=C(Nc1nc(-c2cccs2)cs1)c1ccc(Cl)s1 | u |
| O=C(CSc1ccc(-c2ccco2)nn1)c1ccccc1 | -19% |
| COc1cccc(C(C(=O)NCc2ccco2)N(Cc2ccco2)C(=O)Cn2nnc3ccccc32)c1 (centres undefined) | -10% |
| CN(Cc1nc(-c2cccnc2)no1)S(=O)(=O)c1ccc2ccccc2c1 | -28% |
| O=C(Nc1ccc(Br)cc1F)c1cccnc1 | -9% |
| COc1ccccc1C(=O)Nc1ccc2nc(SCC(=O)N(C)C)sc2c1 | -5% |
| COC(=O)c1ccc(C(NC(=O)OCc2ccccc2)/C(=C/[C@@H](C)C(=O)NCc2ccccc2)c2cccnc2)cc1 (some centres undefined) | -16% |
| CC1=C(c2ccccc2)[N+](=O)C2(CCCC2)N1[O-] | -14% |
| CCCCCOc1ccc(C(=O)OCC(=O)Nc2cc(C)c(C)cc2[N+](=O)[O-])cc1 | -16% |
| O=C(NCc1ccc(F)cc1)c1cc2ccccn2n1 | -18% |
| O=C1CC(SC(=Nc2ccccc2)Nc2ccccc2)C(=O)N1c1cccc(Cl)c1 (centres undefined) | -14% |
| CCN(CC)CCCN1C(=O)C(=O)/C(=C(/O)c2ccc3c(c2)CC(C)O3)C1c1ccncc1 (centres undefined) | -8% |
| COc1ccc(-c2nnc3n2N=C(c2cccc(Br)c2)CS3)cc1OC | -9% |
| Cc1cc(C)c(S(N)(=O)=O)c(C)c1-n1cnnn1 | -1% |
| Cc1snc(S(=O)(=O)/C(C#N)=N/Nc2ccc(C(F)(F)F)cc2)c1C#N | -8% |
| CCOc1ccc(C(=O)N(Cc2ccc(N(C)C)cc2)C2CCS(=O)(=O)C2)cc1 (centres undefined) | -15% |

(list continues)
| compound | HPGD block |
| --- | --- |
| O=S(=O)(c1ccccc1)c1cnc(-c2cccnc2)nc1-c1ccccc1 | -6% |
| CCOc1ccc(OCc2ccc(C(=O)N3CCOCC3)cc2)cc1 | 16µM* |
| COc1ccc(Cc2nnc(NC(=O)CSc3ccc(Cl)cc3)s2)cc1OC | -1% |
| CC(C)OC(=O)c1cc(C(=O)c2cc(F)ccc2O)coc1=N | u |
| COc1ccc(C(C(=O)NC2CCCC2)N(C(=O)c2ccoc2C)c2ccccc2)cc1 (centres undefined) | -5% |
| CCCCC1=CC2=CC(=O)C(C)(OC(=O)CC)C(=O)C2=CN1CCc1ccccn1 (centres undefined) | -2% |
| Cc1nn(C(C)(C)C)c(OC(=O)C2CCCC2)c1S(=O)(=O)c1ccccc1 | -12% |
| Cc1c(O)cc(O)c2c(=O)c(-c3ccc(O)cc3)coc12 | -1% |
| O=C1/C(=C/c2ccc(N3CCOCC3)o2)SC(=Nc2ccccc2)N1CCc1c[nH]c2ccccc12 | -18% |
| CC(C)Cn1c(N)c(C(=O)COC(=O)C2CCCCC2)c(=O)n(C)c1=O | -11% |
| Cc1ccc(NC(=O)CSc2nnc3n2CCCCC3)cc1 | -5% |
| S=C(Nc1ccccc1Cl)N1CCOCC1 | -11% |
| O=C(CNc1c(Br)cc(Br)cc1Br)NN=C1CCCCC1 | -12% |
| O=S(=O)(CCC(F)=C(F)F)c1nnnn1C1CCCCC1 | -7% |
| NC(=O)C1(NC(=O)[C@@H]2CC3(CC(c4cccc(NC(=O)[C@@H]5CCC(=O)N5)c4)=NO3)CN2C(=O)c2ccccc2)CC1 (some centres undefined) | -1% |
| CCOC(=O)CC1Sc2ccccc2NC1=O (centres undefined) | -13% |
| COc1ccc(C2C(C(=O)O)CC(=O)N2C2CCCCC2)cc1 (centres undefined) | -8% |
